Screening results from PubChem.
YopH inh: YopH tyrosine phosphatase inhibitors, primary screen, biochemical, fluorescence Ex485/Em525; inhibition, %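 (about 10 µM by stock and volumes)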; 140,000 tested, 0.16% active;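 active = inhibition of 50% or more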;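 also: controls were vehicle for no effect and minimum signal wells for full effect; inactives centre near -20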
Arbovirus anti: antivirals against arbovirus infection, primary screen, cell-based, full library, 10K replicate subset. arbovirus infection cell-based antiviral screen. inhibition, % at 10 µM. 200,000 tested, 0.37% active;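 active = inhibition from about 30%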;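 also: bluetongue infection of BSR cells; cell survival read as ATP light after 72 h; 0% = infected wells without compound and 100% = uninfected wells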
Mtb bLac sens: beta-lactam sensitization of Mtb H37Rv, H37Rv; M. tuberculosis H37Rv growth with meropenem, percent inhibition; hits of this screen are not shown here; inhibition, % at 25 µM; 330,000 tested, 0.27% active;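 active = about 74% or more and at least 40 points above the plate without the antibiotic, then above 30% in a dose series; inconclusive = first-round hits that could not be retested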;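 also: growth measured after seven days incubation then overnight dye step; 0% = bacteria only wells and 100% = bacteria with antibiotic; twin plates without the antibiotic show which effects depend on it; some results filed as inactive read as strong as hits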
Mtb H37Rv: M. tuberculosis H37Rv growth inhibitors, H37Rv strain (AID 1626); M. tuberculosis H37Rv growth inhibition; higher % means a stronger effect; inhibition, % at 10 µM, or IC50 in µM where a hit was titrated; 220,000 tested, 0.95% active;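 active = confirmed in a dose series; inconclusive = inhibition above 80% but not taken into the dose series; inactive = below 80% or under 30% at every dose of the series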;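 also: bacteria incubated seven days before Alamar blue readout; 0% = bacteria only wells and 100% = bacteria with antibiotic wells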
RecA intein inh: Mtb RecA intein splicing inhibitors, primary screen, biochemical, fluorescence, HTS. Protein RecA (Mycobacterium tuberculosis (strain ATCC 25618 / H37Rv)), P9WHJ3. cell-free RecA intein splicing. inhibition, %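 (about 9 µM by stock and volumes)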. 290,000 tested, 0.75% active. AID 2221, 2009; in the data active = inhibition above about 30%; inconclusive = no clear call, values can overlap the other calls;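 also: 0% = vehicle wells and 100% = reference inhibitor control wells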
Target sequence (P9WHJ3 whole entry, looked up): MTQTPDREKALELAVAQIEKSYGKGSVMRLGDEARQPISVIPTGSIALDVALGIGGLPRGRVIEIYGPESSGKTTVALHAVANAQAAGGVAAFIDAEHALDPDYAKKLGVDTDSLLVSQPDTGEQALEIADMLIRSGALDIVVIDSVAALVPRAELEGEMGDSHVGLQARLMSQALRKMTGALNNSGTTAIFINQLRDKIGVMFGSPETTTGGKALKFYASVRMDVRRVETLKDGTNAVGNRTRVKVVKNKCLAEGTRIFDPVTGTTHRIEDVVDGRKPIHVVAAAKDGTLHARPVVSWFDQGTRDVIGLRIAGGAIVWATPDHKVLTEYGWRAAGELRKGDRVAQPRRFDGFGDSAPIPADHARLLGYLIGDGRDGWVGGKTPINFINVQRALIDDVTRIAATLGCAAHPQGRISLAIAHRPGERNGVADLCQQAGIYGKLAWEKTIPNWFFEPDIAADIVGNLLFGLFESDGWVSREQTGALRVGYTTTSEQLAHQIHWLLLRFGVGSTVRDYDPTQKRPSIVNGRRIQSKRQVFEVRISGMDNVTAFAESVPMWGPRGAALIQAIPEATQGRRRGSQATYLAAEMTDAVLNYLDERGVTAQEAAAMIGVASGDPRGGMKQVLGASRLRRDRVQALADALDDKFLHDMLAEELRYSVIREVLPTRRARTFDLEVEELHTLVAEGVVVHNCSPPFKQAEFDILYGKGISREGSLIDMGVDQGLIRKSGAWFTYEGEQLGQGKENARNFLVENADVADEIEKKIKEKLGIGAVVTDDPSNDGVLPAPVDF
Arbovirus anti repeat: recorded beside Arbovirus anti, whose call it bears; inhibition, %; measured here: 10K subset replicate screen; many hits read low in the repeat;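 first of two repeat runs on a subset; 0% = infected and 100% = uninfected wells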
An asterisk follows results filed as active; ? = inconclusive; / = no result given. The list is partial; rates above refer to the full screens.

SMILES	YopH inh	Arbovirus anti	Mtb bLac sens	Mtb H37Rv	RecA intein inh	others
COc1ccc(CCNC(=O)C2CCCN(S(C)(=O)=O)C2)cc1OC (centres undefined)	-5.9	3.5	-3.1	0.0%	-1.5
COc1ccc(Cl)cc1S(=O)(=O)N1CCCC(C(=O)NCCc2ccccc2)C1 (centres undefined)	/	/	-17.0	/	0.3
CCOC(=O)C1=NN(c2ccc(F)cc2)C2=NC(C)=C(C(=O)OC)C(c3cccs3)N12 (centres undefined)	-18.8	/	-19.0	-4.7%	/
O=C(NCc1ccccc1)Nc1cccn(Cc2ccc(F)cc2)c1=O	-44.1	4.0	-3.0	9.0%	3.3
COc1ccc(C(CC(=O)NCc2ccccc2)Sc2n[nH]c(-c3ccccc3)n2)cc1 (centres undefined)	-12.3	-3.4	-5.3	-15.9%	1.1
Cc1ccc(C(=O)CSc2nnc(C)s2)cc1	-18.8	-1.5	2.0	3.0%	-7.7
CCc1c(C)nc2ncnn2c1N1CCC(C(=O)NCc2cccs2)CC1	/	-1.6	-0.4	3.2%	2.0
COc1cccc(OCc2nnc(SCC(=O)NCc3ccco3)n2CCc2ccccc2)c1	-32.3	-14.9	-1.0	-2.1%	6.7
CC(C)(C)NC(=O)CSc1nc(-c2ccccc2)c(-c2ccccc2)[nH]1	5.5	-31.8	?	2.8%	-1.6
Cn1c(SCC(=O)c2ccccc2)nnc1-c1ccccn1	/	/	-6.2	-3.3%	-0.7
CC(C)NC(=O)NC(=O)COC(=O)C1(C)CC1(Cl)Cl (centres undefined)	/	5.1	8.1	5.3%	-0.1
COc1ccc(/C=N/n2cnn(Cc3ccccc3Cl)c2=S)cc1	/	7.8	1.1	7.6%	-1.8
CCNC(=S)N1CCC(C(=O)c2ccc3c(c2)OCCO3)CC1	/	2.9	0.5	3.4%	-1.0
COc1cccc(/C=N/n2nnnc2N)c1	/	/	-3.5	-4.0%	/
O=C(O)c1ccc(F)c(S(=O)(=O)Nc2ccccc2)c1	-55.6	3.0	6.2	-3.3%	3.6	Arbovirus anti repeat=1.2
Cn1c(=O)c(C(=O)NNC(=O)c2cccc(Cl)c2)c(O)c2ccccc21	/	/	99.8	/	-2.7
Cc1cc(C)c(S(=O)(=O)N2CCC(C(=O)NCc3ccco3)CC2)c(C)c1	-1.7	4.6	-0.1	-2.0%	2.4
Cc1cc(OC(=O)c2cccc(Cl)c2)c([N+](=O)[O-])c(=O)[nH]1	/	/	0.3	/	-3.0
CCOc1ccc(N2CC(C(=O)Nc3cccc(C)c3C)CC2=O)cc1 (centres undefined)	-33.3	-7.7	-2.3	-0.7%	0.1
CC(C)=CC(=O)N1CCCC(N2CCN(c3ccccc3C)CC2)C1 (centres undefined)	/	/	-0.9	/	1.4
CC(=O)/C(=N/Nc1ccccc1[N+](=O)[O-])N1CCCc2ccccc21	/	/	6.4	-4.8%	11.1
CC(C)=NN1C(c2nonc2N)=NOC1(C)C	/	/	1.0	-6.3%	/
Cc1ccc(/C=N/n2cnc3sc(C)c(C)c3c2=O)o1	/	3.7	-3.6	2.9%	1.2
O=C(Nc1ccc(C(F)(F)F)cc1)C1CCN(c2cnccn2)CC1	/	/	68.8	/	0.7
CC(=O)N1c2ccc(S(=O)(=O)CCC(=O)O)cc2CC1C (centres undefined)	-30.5	8.4	9.2	-9.9%	2.2

As a working copy, 5 of the compounds above.
SMILES	YopH inh	Arbovirus anti	Mtb bLac sens	Mtb H37Rv	RecA intein inh	others
COc1ccc(CCNC(=O)C2CCCN(S(C)(=O)=O)C2)cc1OC (centres undefined)	-5.9	3.5	-3.1	0.0%	-1.5
COc1ccc(Cl)cc1S(=O)(=O)N1CCCC(C(=O)NCCc2ccccc2)C1 (centres undefined)	/	/	-17.0	/	0.3
CCOC(=O)C1=NN(c2ccc(F)cc2)C2=NC(C)=C(C(=O)OC)C(c3cccs3)N12 (centres undefined)	-18.8	/	-19.0	-4.7%	/
O=C(NCc1ccccc1)Nc1cccn(Cc2ccc(F)cc2)c1=O	-44.1	4.0	-3.0	9.0%	3.3
COc1ccc(C(CC(=O)NCc2ccccc2)Sc2n[nH]c(-c3ccccc3)n2)cc1 (centres undefined)	-12.3	-3.4	-5.3	-15.9%	1.1

(further entries)
SMILES	YopH inh	Arbovirus anti	Mtb bLac sens	Mtb H37Rv	RecA intein inh	others
COc1ccc(S(=O)(=O)N(C)c2ccc(C(=O)Nc3cccnc3)cc2)cc1OC	/	/	1.1	/	-0.3
O=C(CC(=O)c1ccccc1O)c1ccc(F)cc1	-35.5	-10.2	94.4	-0.5%	3.7
COC(=O)C1=C(C(=O)OC)[C@@H]2Nc3ccccc3[C@@]23C[C@@H](C(=O)OC)N(C(=O)c2ccc(Br)cc2)C3=N1	/	/	/	8.7%	-3.2
O=C(NNC(=S)Nc1ccccc1Cl)C1CC1	-9.6	0.2	5.6	-6.6%	-0.2
C/C(CCc1ccccc1)=N/NC(=O)C(=O)NCc1ccccc1	/	-0.9	-2.1	0.2%	/
CCCCOCCCNC(=O)CC(C)c1ccccc1 (centres undefined)	1.2	-1.7	-4.5	0.0%	0.5
COc1ccccc1NC(=O)CN(C)S(=O)(=O)c1ccc2c(c1)CCC(=O)N2	2.4	4.0	5.8	1.2%	-5.6
CN(CC(=O)Nc1cccc(F)c1)C(=O)C1=COCCO1	/	/	-7.5	/	-0.9
O=C(Cn1c(=O)oc2ccccc21)Nc1ccccc1C(F)(F)F	/	/	3.0	/	1.0
COc1ccccc1N1CCN(/N=C\c2ccc(C)o2)CC1	-38.9	-3.9	-10.6	-7.9%	-3.5
CCOc1ccccc1N1CCN(Cc2cn[nH]c2-c2ccc(F)cc2)CC1	/	/	-6.2	-9.7%	1.9
COc1cccc(C(=O)NNC(=O)c2ccccc2-n2cccc2)c1	/	4.3	-0.2	3.1%	-1.6
COC(=O)CNC(=O)CN1C(=O)N(c2ccc(Cl)cc2)C(N(O)C(=O)Nc2ccc(Cl)cc2)C1(C)C (centres undefined)	-2.5	0.8	-13.5	0.5%	-0.6
Cc1ccc(C(=O)Nc2ccc(N3CCOCC3)nc2)cc1	-38.6	8.7	-19.6	0.1%	4.8
N#C/C(=C\c1c(Cl)cccc1Cl)c1nn(-c2ccccc2)c(-n2cccc2)c1C#N	/	/	-10.8	-1.9%	25.3
Cc1ccc(N(CN2CCCC2=O)C(=O)c2ccc(OC(C)C)cc2)cc1	-50.0	-2.2	8.5	1.1%	-2.0
COCCCNC(=O)C1CCC(CNS(=O)(=O)c2ccc3c(c2)CC(C)N3C(=O)C2CC2)CC1 (centres undefined)	/	/	-9.7	/	5.0
Cc1ccc(S(=O)(=O)NC2=NCN(C3CCN(Cc4ccccc4)CC3)CN2)cc1	9.6	-5.4	-2.2	3.8%	-0.1
Cc1nn(Cc2ccc(F)cc2)c(C)c1NC(=O)c1cc(-c2ccc3c(c2)OCO3)on1	-38.5	-30.0	-2.2	-7.4%	0.1
CN(Cc1ccccc1)S(=O)(=O)c1ccc2c(c1)NC(=O)CC(=O)N2	-25.5	-0.8	1.5	-5.1%	5.0
CC(C)(C)S(=O)(=O)/C(C#N)=C/Nc1ccccn1	/	/	-0.9	-5.9%	0.1
CCNC(=O)COC(=O)CCC(=O)c1ccc(F)cc1	/	/	-9.4	-2.2%	-2.9
CC1=C(C(=O)OCc2ccccc2)C(c2ccc(-c3ccccc3)cc2)NC(=O)N1CCCCCC(=O)O (centres undefined)	-28.1	0.8	2.4	-4.5%	/
NC(=O)c1cnn(-c2ccc3ccccc3c2)c1N	/	8.3	-5.8	0.6%	2.1
CCCCN(CCCC)C(=S)N/N=C/c1c(C)[nH]n(-c2ccccc2)c1=O	-53.7	-23.8	/	11.7%	8.3

Part of the list above in order of length of the SMILES, rising:
SMILES	YopH inh	Arbovirus anti	Mtb bLac sens	Mtb H37Rv	RecA intein inh	others
CC(=O)N1c2ccc(S(=O)(=O)CCC(=O)O)cc2CC1C (centres undefined)	-30.5	8.4	9.2	-9.9%	2.2
Cn1c(=O)c(C(=O)NNC(=O)c2cccc(Cl)c2)c(O)c2ccccc21	/	/	99.8	/	-2.7
COc1ccc(S(=O)(=O)N(C)c2ccc(C(=O)Nc3cccnc3)cc2)cc1OC	/	/	1.1	/	-0.3

Looked up one by one from above, two records:
SMILES	YopH inh	Arbovirus anti	Mtb bLac sens	Mtb H37Rv	RecA intein inh	others
CC(C)(C)S(=O)(=O)/C(C#N)=C/Nc1ccccn1	/	/	-0.9	-5.9%	0.1
CCCCN(CCCC)C(=S)N/N=C/c1c(C)[nH]n(-c2ccccc2)c1=O	-53.7	-23.8	/	11.7%	8.3

(cont.)
SMILES	YopH inh	Arbovirus anti	Mtb bLac sens	Mtb H37Rv	RecA intein inh	others
CCOc1cc(C(=O)N=c2sccn2C)cc(Br)c1OC	/	/	5.6	/	3.5
COCCCn1c(SCC(=O)OC2CCCCC2)nnc1-c1cccs1	16.2	2.5	-11.3	2.3%	1.6
Cc1cc(=O)n2c(-c3ccc(Cl)cc3)csc2n1	/	/	-10.6	0.7%	-2.0
O=C(CN1CCC(Cc2ccccc2)CC1)NC(=O)NCc1ccco1	-30.5	-0.5	-10.2	-10.6%	0.7
CN(Cc1ccccc1F)C(=O)C(Cc1ccccc1)NC(=O)c1ccccc1 (centres undefined)	/	/	3.5	/	-0.3
CCC(O)C1CCN(C(=O)c2ccc(OC3CCN(Cc4ccccn4)CC3)cc2)CC1 (centres undefined)	/	/	-5.0	/	-1.7
CC(=O)O/N=C(/C)c1ncc(C(F)(F)F)cc1N1CCOCC1	-13.9	3.9	-8.0	-0.9%	-0.8
Cn1cc(CN2CCC(C(O)c3cccs3)CC2)c(-c2ccccc2F)n1 (centres undefined)	/	/	-7.3	-7.0%	-0.4
c1ccc(C[n+]2c(-c3ccccc3)csc2Nc2ccccc2)cc1	-13.0	-5.2	1.5	-12.3%	6.2
Cc1cccc(C)c1N1C(=O)CC(N(O)c2ccccc2)C1=O (centres undefined)	3.8	1.1	1.3	-12.0%	-1.3
Cc1ccc(NC(=S)N(CCCN2CCN(C)CC2)Cc2cccs2)cc1	/	12.5	-7.5	-2.1%	-4.9
Cc1ccc(C)c(NC(=S)NNC(=O)c2ccc(Br)o2)c1	-36.8	8.3	0.9	/	7.9
Cc1ccc(C(=O)NNc2ncnc3ccccc23)cc1	/	/	-2.3	4.9%	2.0
CCCC1=Nc2cc(C(=O)NCCCOC(C)C)ccc2Sc2ccccc21	0.3	-23.3	4.8	-4.3%	-0.4
COc1ccc(OC)c(NC(=O)C2CCCN(S(C)(=O)=O)C2)c1 (centres undefined)	/	/	-3.3	/	-0.4
Fc1ccc(CSc2nnc(CN3CCOCC3)n2-c2ccccc2)c(Cl)c1	15.8	4.2	3.1	-3.1%	2.2
O=C(NCCCn1cccn1)C1CCC(=O)N(Cc2ccccc2F)C1 (centres undefined)	/	/	1.1	/	0.9
Cn1cc(SCC(=O)Nc2ccc3c(c2)OCO3)c2ccccc21	4.2	-11.8	7.9	4.7%	5.4	Arbovirus anti repeat=-3.5
COC(CNC(=O)c1coc2nc3ccccc3nc12)OC	/	/	6.8	-10.8%	-8.2
O=C(NCc1cccc(Cl)c1)C1CCCO1 (centres undefined)	/	-6.1	1.3	-0.6%	0.4
CCc1ccc2c(c1)/C(=N/OC)C(=O)N2	-4.1	-6.6	-1.2	-3.6%	-1.0
O=C(CC(=O)N/N=C/c1ccccc1)NCc1ccccc1	/	11.0	6.6	-5.8%	1.7
O=[N+]([O-])c1ccc(C(=S)N2CCC(Cc3ccccc3)CC2)cc1	-22.7	11.8	2.5	-0.9%	8.8
COc1cc(/C=C2\OC(=O)c3c(OC)cccc32)ccc1O	-5.3	-7.8	9.6	40.1%	-63.1
COc1ccc(C(=O)Nc2nnc(S(=O)(=O)N3CCOCC3)s2)cc1	/	/	4.1	/	-1.7
Cc1ccc(CN2C(=O)N/C(=C/c3cc(C)n(-c4ccccn4)c3C)C2=O)cc1	-39.1	-5.4	25.4	5.7%	-2.6

In the list so far, five have an NH in an aromatic ring:
SMILES	YopH inh	Arbovirus anti	Mtb bLac sens	Mtb H37Rv	RecA intein inh	others
COc1ccc(C(CC(=O)NCc2ccccc2)Sc2n[nH]c(-c3ccccc3)n2)cc1 (centres undefined)	-12.3	-3.4	-5.3	-15.9%	1.1
CC(C)(C)NC(=O)CSc1nc(-c2ccccc2)c(-c2ccccc2)[nH]1	5.5	-31.8	?	2.8%	-1.6
Cc1cc(OC(=O)c2cccc(Cl)c2)c([N+](=O)[O-])c(=O)[nH]1	/	/	0.3	/	-3.0
CCOc1ccccc1N1CCN(Cc2cn[nH]c2-c2ccc(F)cc2)CC1	/	/	-6.2	-9.7%	1.9
CCCCN(CCCC)C(=S)N/N=C/c1c(C)[nH]n(-c2ccccc2)c1=O	-53.7	-23.8	/	11.7%	8.3
